Bioassay records as filed in PubChem BioAssay.
Beta cell apopt – blocks beta cell apoptosis; protection from apoptosis, % (no concentration beside the values); actives 0.8% (n = 300,000); INS-1E cytokine-induced death, ATP luminescence, 48 h; percent of positive-control rescue, neutral wells zero;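 active = all replicates at 75% or more, or half of them and the mean; inconclusive = half reach 75% but not the mean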;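 note: 0% = cytokine-treated negative control wells and 100% = positive control rescue; higher means more ATP so stronger rescue from cytokine killing; wells of about 40 µL received 100 nL stock; the first replicate is given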
LANA-H2A inh – blocks KSHV LANA binding to histone H2A/H2B; AID 2629; actives 0.6% (n = 320,000); Q9QR71; inhibition, % (no concentration beside the values); cell-free LANA-H2A/H2B peptide, fluorescence polarization; in the data active = inhibition mostly above about 10%, no sharp cut-off; inactive = mostly below about 6.7%;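 note: stock transfer was 7.5 nL into about 10 µL; 0% = median of vehicle wells and 100% = median of positive control wells; one replicate is shown; the record names a cut of 25% in any replicate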
Calb FLC – C. albicans growth modulation with fluconazole; C. albicans CaCi-2 (fluconazole-resistant clinical isolate) + fluconazole, Alamar Blue growth, 48 h; growth inhibition, % (no concentration beside the values); actives 0.57% (n = 300,000);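 active = most replicates above 75%; inconclusive = exactly half above 75%; inactive = most below 75%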;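 note: all wells also contain fluconazole at 8 µg/ml as a sub-toxic cotreatment; 0% = median of DMSO wells and 100% = median of geldanamycin control wells; wells of about 8 µL received 7.5 nL stock; the first replicate is given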
UCH37 DUB inh – inhibitors of human deubiquitinating enzyme UCH37 | actives 0.33% (n = 330,000) | inhibition, % (concentration not given with the values) | purified proteasome/UCH37, Ub-AMC cleavage fluorescence | AID 588478 | Q9Y5K5;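 active = mean of two replicates above 20%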;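 note: 0% = compound-free wells with enzyme and 100% = wells lacking proteasome; stock transfer was 100 nL into about 20 µL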
Target sequence (Q9Y5K5 whole entry, looked up): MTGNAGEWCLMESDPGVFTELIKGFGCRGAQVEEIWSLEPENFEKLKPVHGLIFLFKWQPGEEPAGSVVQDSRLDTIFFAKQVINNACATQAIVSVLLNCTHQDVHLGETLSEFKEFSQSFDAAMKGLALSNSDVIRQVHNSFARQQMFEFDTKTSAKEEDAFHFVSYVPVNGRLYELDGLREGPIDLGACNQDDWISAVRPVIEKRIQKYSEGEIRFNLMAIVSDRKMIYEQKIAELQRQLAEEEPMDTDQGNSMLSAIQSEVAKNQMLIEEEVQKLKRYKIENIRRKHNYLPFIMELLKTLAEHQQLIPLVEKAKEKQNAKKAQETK
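Material: Human UCH37 enzyme supplied as purified proteasome complex | Schedule: 30 min preincubation with enzyme, 25 min cleavage at room temperature | Detection: AMC fluorescence 355/460 nm | Measure: % inhibition of Ub-AMC cleavage fluorescence | Controls: Wells without proteasome as full block, compound-free enzyme plus substrate as uninhibited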
RanGTP-Impb inh – disruptors of Ran-importin-beta complex formation – biochemical, FRET, CFP-Ran, YFP-importin-beta, homogeneous, primary screen; inhibition, % (concentration not given with the values); cell-free CFP-Ran/YFP-importin-beta FRET ratio; AID 2216; actives 1.1% (n = 300,000);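 active = most replicates above 15%; inconclusive = exactly half above 15%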;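 note: 0% = DMSO wells and 100% = Ran loaded with GDP instead of GTP; wells of about 40 µL received 100 nL stock; the first replicate is given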
Bfl-1 A1 inh – inhibitors of the anti-apoptotic protein A1, read as caspase activation | MEF A1-2A-BIM cells, Caspase-Glo 3/7 luminescence, 3 h; percent of clofoctol response, vehicle zero | caspase activation, % (no concentration beside the values) | actives 0.066% (n = 330,000);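 active = over half of replicate activation scores above 10%, or exactly half above 10 with the replicate mean above 10; inconclusive = replicate mean below 10 yet half the replicates above 10; inactive = over half of replicates below 10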;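 note: wells of about 30 µL received 50 nL stock; many hits fall short of the cut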
B2AR ag – human beta-2 adrenergic receptor agonism by FAP; AID 504454; Am2.2-beta2AR cells, FAP receptor internalization, flow cytometry; reference of the scale not given here; P07550; actives 0.43% (n = 340,000); response, % (test concentration not listed);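 active = response above a set limit, near 3 SD of response in nonfluorescent compounds, cut at about 42% in these data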;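 note: stock transfer was 100 nL into about 11 µL; a reference agonist was the positive control; negative values mostly stem from fluorescent compounds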
Target sequence (P07550 whole entry, looked up): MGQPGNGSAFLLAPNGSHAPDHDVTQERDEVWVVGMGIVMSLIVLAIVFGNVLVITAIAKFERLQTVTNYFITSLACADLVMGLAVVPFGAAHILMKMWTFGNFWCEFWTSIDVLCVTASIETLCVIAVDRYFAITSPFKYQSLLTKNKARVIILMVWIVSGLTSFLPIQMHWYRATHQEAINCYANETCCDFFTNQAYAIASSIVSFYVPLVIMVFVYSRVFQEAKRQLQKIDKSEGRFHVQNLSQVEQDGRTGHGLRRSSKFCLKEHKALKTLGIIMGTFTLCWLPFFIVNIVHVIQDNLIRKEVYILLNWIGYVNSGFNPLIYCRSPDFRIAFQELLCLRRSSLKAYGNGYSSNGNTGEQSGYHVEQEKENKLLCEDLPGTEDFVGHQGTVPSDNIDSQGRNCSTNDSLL
T cruzi inh – blocks replication of Trypanosoma cruzi; T. cruzi beta-gal in NIH3T3, luminescence, 90 h; inhibition, % (no concentration beside the values); actives 1.4% (n = 300,000);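 active = mean inhibition across valid replicates above about 55%, limit read from the data; inconclusive = mean below that limit but half or more replicates reach it; inactive = mean below it, under half of replicates reach it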;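 note: signal also drops with host cell toxicity which is not excluded here; 0% = plate median of DMSO wells and 100% = zero luminescence signal; higher percent means less beta-gal luminescence so fewer parasites; stock transfer was 50 nL into about 50 µL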
* = called active by the depositor; ? = inconclusive; · = not tested or not shown; + = active, no number.

SMILES	Beta cell apopt	LANA-H2A inh	Calb FLC	UCH37 DUB inh	RanGTP-Impb inh	Bfl-1 A1 inh	B2AR ag	T cruzi inh
O=C(O)CC(=O)Nc1ccc(Oc2ccc(C(F)(F)F)cn2)c(Cl)c1	-7	-5.7	-5	0.2	2.4	-0.4	-1	-18
Cn1nnc2ccccc2c1=O	5	6.5	-24	3.0	-2.9	1.6	-1	-3
CSCCCNC(=S)N1CCc2ccccc2C1	-2	-1.8	-20	0.9	4.8	-0.4	-6	-2
COc1cc(/C=N/NC(=O)C(C)n2nnc3ccccc32)ccc1O (stereo not given)	0	2.7	6	·	7.2	-0.2	-3	-13
COc1ccccc1NC(=O)Nc1cccnc1	-2	2.1	-3	·	·	-2.8	-2	·
Cc1noc(C)c1CSCC(=O)Nc1cc(S(=O)(=O)N2CCOCC2)ccc1OC(C)C	·	8.5	-11	2.6	1.1	-1.9	-1	13
Cc1cccc(OCC(=O)Nc2cc(C)on2)c1	-1	-0.8	12	34*	0.0	-0.2	-4	-11
O=C(O)c1cc(/C=C/C(=O)c2cc(F)ccc2O)c2c(c1)COCO2	-4	-3.4	·	5.3	·	-0.3	6	·
O=C(NC(=S)NC1CC1)c1cccnc1	8	11	-8	1.5	-0.6	0.0	-1	-8
NC(=O)CC[C@@H]1NC(=O)[C@@H]2CCCN2C(=O)c2cc([N+](=O)[O-])cc(F)c2NCCC[C@@H](C(N)=O)NC1=O	-2	3.0	9	3.5	1.3	-0.1	1	-20
Cc1nn(Cc2ccc(F)cc2)c(C)c1NC(=O)c1cc2ncc(Br)cn2n1	1	-7.8	4	3.5	1.3	?	2	-1
CCOc1cccc(-c2nnc(SCC(=O)Nc3cc(OC)cc(OC)c3)n2N)c1	-4	-0.8	-21	3.6	0.2	-0.8	-2	3
O=C(O)C1=C[C@H](c2ccc(C(F)(F)F)cc2)C[C@H](OCCCCO)O1	-5	-1.7	-9	1.0	-4.1	0.6	2	-13
CC(C)CC(NC(N)=O)C(=O)OCC(=O)N(Cc1ccccc1)Cc1ccccc1 (stereo not given)	1	1.9	-2	2.6	·	1.1	-3	·
Cc1c(N2C(=O)CSC2c2ccc([N+](=O)[O-])cc2)c(=O)n(-c2ccccc2)n1C (stereo not given)	·	3.8	-4	3.1	-3.9	-0.4	-11	-6
COc1cccc2c1C(=O)O/C2=C/c1ccc2c(c1)OCO2	12	1.9	-29	-33	1.4	0.4	22	1
CCN1C(=O)CSc2ccc(C(=O)OC)cc21	-4	2.2	8	1.5	0.8	1.3	2	5
Cc1ccc(NC(=O)c2c(C)noc2-c2snnc2C)cc1	-3	-2.2	-6	-0.6	-0.8	0.3	0	0
CNC(=S)N1CCN(S(=O)(=O)c2ccc3ccccc3c2)CC1	-5	-1.8	2	1.4	-1.0	-0.1	-15	4
COc1ccc(N2CC(C(=O)Nc3nnc(SCC(=O)NCC4CCCO4)s3)CC2=O)cc1 (stereo not given)	0	34*	-8	3.7	4.9	-1.1	2	1
O=C(NCC(=O)N1CCc2ccccc2C1)c1ccccc1Cl	-2	2.8	0	1.8	-1.6	0.7	-2	-3
COc1ccc(CCNC(=O)C2CCN(S(C)(=O)=O)CC2)cc1	-5	18	-23	-1.3	0.0	-0.1	1	-2
Cc1noc(C)c1C(=O)Nc1ccc(Cl)cc1C(F)(F)F	-5	-2.0	-10	2.1	7.3	-0.8	-4	0
Cc1ccccc1NC(=O)c1cccc(S(=O)(=O)Oc2ccc([N+](=O)[O-])cc2)c1	-1	-1.5	-8	4.8	0.3	0.0	-3	-21
Nc1cc(S(=O)(=O)Nc2ccc(Br)cc2)ccc1Cl	-6	-1.3	11	2.0	-1.9	-0.3	-11	1
O=C(Nc1ccc([N+](=O)[O-])cn1)c1cccnc1	-10	1.3	1	2.5	?	-1.0	7	3
O=S(=O)(c1ccc(NCCc2c[nH]c3ccccc23)nc1)N1CCOCC1	-4	1.2	-2	-1.0	-4.7	1.0	0	1
C/C(=N\NC(=S)NCc1ccccc1)c1cccs1	-1	-1.4	3	·	-3.2	0.4	-6	24
CC(C)C(=O)N1CCc2cc(-c3csc(N)n3)ccc21	-2	3.5	3	0.9	4.6	0.3	13	9
CCCN(C(=O)CSc1cc(-c2ccccc2)c2ccc(OC)cc2n1)C1CCS(=O)(=O)C1 (stereo not given)	-6	-3.1	5	-11	-1.8	0.5	-13	13
Cc1ccc(C(=O)NCc2ccc3c(c2)OCO3)cc1C	-3	0.2	-38	·	2.7	0.6	-4	-22
CSC1CCCCC1(O)CSc1nc2ccccc2o1 (stereo not given)	-2	1.6	8	3.3	2.1	-0.6	-1	4
CC(C)CC1Nc2ncnc(N3CCOCC3)c2N(Cc2ccc(Br)cc2)C1=O (stereo not given)	-2	2.8	-4	2.2	2.0	-0.3	-3	7
Cc1cccc(C2NC(c3cccc(C)c3)C(C)C(=O)C2C)c1 (stereo not given)	1	0.5	9	2.2	?	-0.2	8	7
O=C(N/N=C/c1ccccc1O)C1CCCC1	8	0.2	8	·	0.3	0.6	3	-7
Cn1c(=O)c2c(SCC(=O)NCC3CCCO3)nc(-c3ccccc3Cl)nc2n(C)c1=O (stereo not given)	6	-0.3	-1	3.2	1.3	0.3	-8	12
Cc1ccc(S(=O)(=O)N(C)c2ccc3ccccc3c2)cc1	-2	-2.6	-8	0.0	-3.2	2.4	-2	-9
COc1ccc2c(c1)c(C(=O)CN1CCN(C(=O)c3ccco3)CC1)c(C)n2C	-5	-3.1	-5	1.4	19*	-0.2	0	5
CCN(CC)CCCn1c(=S)[nH]c2cc(OC)c(OC)cc2c1=O	-4	11	-16	4.7	3.8	0.2	3	-2
O=C(CS(=O)(=O)Cc1ccccc1)N1CCN(c2ccccc2F)CC1	-2	-0.5	0	-0.6	2.5	0.2	13	11
CCC(=O)Nc1nnc(SCCOC)s1	-12	3.3	4	1.6	0.5	0.1	-4	0
COc1cc(NC(=O)CN2C(=O)c3ccccc3Sc3ccc(C(=O)N4CCOCC4)cc32)cc(OC)c1OC	-4	-18	14	3.8	-3.0	0.0	3	-1
COc1ccccc1NC(=O)/C(=C\c1cccs1)NC(=O)c1ccco1	2	+	-5	8.3	-1.6	0.8	0	5
COc1cccc(N2CCN(C(=O)c3cc4ccc(OC)cc4[nH]3)CC2)c1	-8	-3.3	5	3.9	4.5	2.2	-2	-11
COc1cc(NC(=O)c2cc(C)nc3ccccc23)cc(OC)c1OC	3	0.9	22	5.2	·	-0.5	-3	1

Some of the entries so far, with two lines to a compound.
Screens in order – Beta cell apopt | LANA-H2A inh | Calb FLC | UCH37 DUB inh | RanGTP-Impb inh | Bfl-1 A1 inh | B2AR ag | T cruzi inh
- COc1ccc2c(c1)c(C(=O)CN1CCN(C(=O)c3ccco3)CC1)c(C)n2C
  -5 | -3.1 | -5 | 1.4 | 19* | -0.2 | 0 | 5
- O=C(N/N=C/c1ccccc1O)C1CCCC1
  8 | 0.2 | 8 | · | 0.3 | 0.6 | 3 | -7
- CCN(CC)CCCn1c(=S)[nH]c2cc(OC)c(OC)cc2c1=O
  -4 | 11 | -16 | 4.7 | 3.8 | 0.2 | 3 | -2

Next results follow.
SMILES	Beta cell apopt	LANA-H2A inh	Calb FLC	UCH37 DUB inh	RanGTP-Impb inh	Bfl-1 A1 inh	B2AR ag	T cruzi inh
Cc1nc2ccc(NC(=O)NCCO)cc2s1	6	3.2	-1	-2.7	4.0	0.2	-7	4
CCOc1ccccc1OCCCCN1CCCC1	-1	13	-7	-2.1	0.7	0.3	1	11
Cc1cc(NS(=O)(=O)c2ccc(NC(=O)/C=C/c3ccco3)cc2)nc(C)n1	-2	13	-12	12	-3.0	-1.0	-1	-1
CCC(=O)n1nc(-c2ccc(Cl)cc2)nc1N	-1	0.4	-18	-0.7	2.6	-0.2	-7	-3
COc1cc(/C=C/c2[nH]c(=O)[nH]c(=O)c2[N+](=O)[O-])cc([N+](=O)[O-])c1O	6	-4.6	7	21*	6.4	0.5	-3	-1
COc1cc(NC(=O)Cn2c([N+](=O)[O-])cnc2C)c(OC)cc1Cl	-6	-10	-9	3.4	6.5	1.4	9	-3
Cc1cccc(NC(=O)CCCCCN2C(=O)[C@@H]3Cc4ccccc4CN3C2=O)c1	-7	-1.7	2	1.1	2.3	-0.5	2	3
CCC1CCC2(CC1)NC(=O)N(CC(=O)Nc1cc(C)on1)C2=O (stereo not given)	1	-3.7	13	0.9	4.8	0.8	4	-14
CCOc1ccccc1-c1cc(-c2n[nH]c(=S)n2CC)c2ccccc2n1	7	1.0	0	-14	-0.3	-0.2	-1	21
Cc1cc(/C=N/NC(N)=S)c(C)n1-c1ccc(Cl)cc1	-3	1.9	-32	·	-2.7	-0.7	3	25
O=C(CCC(=O)OCC(=O)c1ccc(Cl)cc1)NC1CCCCC1	-8	3.7	0	0.8	1.8	0.2	2	-10
COc1ccc(-n2c(SCC(=O)Nc3ccc(NC(C)=O)cc3)nc3ccccc3c2=O)cc1	·	-2.5	12	2.0	0.8	1.3	-5	0
CCN(Cc1ccncc1)C(=O)c1ccc2c(c1)S(=O)(=O)c1ccccc1C2=O	-2	-9.8	25	3.0	8.2	0.4	19	9
CCOc1ccccc1C(=O)OCC(=O)NCCc1ccc(OC)cc1	-3	-2.5	·	3.1	·	0.0	-7	·
Cc1ccc(C(C(=O)NC(C)(C)C)N(CCCN2CCOCC2)C(=O)c2ccc(-c3ccccc3)[nH]2)o1 (stereo not given)	3	3.0	-1	-2.0	-2.9	0.0	-1	3
Cc1cc(S(=O)(=O)N2CCCCC2CCNC(=O)C(=O)NCc2cccnc2)ccc1F (stereo not given)	·	3.9	3	-0.5	0.6	-0.1	-2	6
CCOC(=O)c1c(/N=C/C2=C(O)CC(C)(C)CC2=O)sc(C(C)=O)c1C	-9	3.3	5	·	4.8	-0.4	-5	-13
CO/N=C\CC(=O)Nc1ccc(Cl)c(Cl)c1	8	-6.8	-3	·	-7.0	0.1	-9	-52
O=C1C(=O)N(Cc2ccco2)C(c2cccc(Cl)c2)/C1=C(\O)c1ccc2c(c1)OCCO2 (stereo not given)	-7	2.6	8	4.1	0.3	0.3	-4	-12
CCCCC(=O)Nc1cc2nn(-c3ccc(OC)cc3)nc2cc1C	0	2.4	-3	-207	-0.6	-0.7	6	-29
O=C(NCCCN1CCOCC1)NC1CCCCC1	1	2.8	14	-2.9	-1.5	0.3	5	-11
O=C(NC(Cc1c[nH]c2ccccc12)C(=O)O)c1ccc(Br)cc1 (stereo not given)	-3	1.7	-4	0.3	-8.3	-0.3	7	-14
Cc1csc(NC(=O)CCCc2cccs2)n1	2	181*	-53	1.2	1.4	-0.2	-6	4
COc1ccc(CCn2c(SCC(=O)Nc3cc(C)on3)nc3ccccc3c2=O)cc1OC	-11	-0.9	3	6.0	-1.1	0.8	9	0
COc1ccc(CN2CCN(CCC(C)C)C(CCO)C2)cc1Cn1cncn1 (stereo not given)	-4	3.7	-11	1.4	-3.3	-0.1	-4	7
CCc1ccccc1N(C)S(=O)(=O)c1ccc2[nH]cc(C(=O)O)c(=O)c2c1	-8	-6.3	-6	0.1	1.7	0.3	76*	-14

Compounds were not picked by outcome; overall some 4.3% were active at least once.
